PrP 5UTR inh: suppresses PrP 5' UTR mRNA reporter expression | cell-based PrP 5' UTR mRNA reporter, plate reader | inhibition, % (test concentration not listed) | 340,000 tested, 0.35% active | AID 488862;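 active means every replicate at 50% or more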;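 further: 0 = median of the neutral control wells; tested in H4 reporter cells; numbers are from one replicate; inactives centre near -14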
Mtb hypoxia inh: inhibitors of hypoxia-regulated fluorescent reporter in Mycobacterium tuberculosis | M. tuberculosis hypoxia-regulated fluorescent reporter, fluorescence | fluorescence inhibition, % (test concentration not listed) | 300,000 tested, 0.1% active;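 active means 35 to 45% if threefold the growth effect, above 45% if 1.5-fold the growth effect; inactive means the rest, general growth blockers included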;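 further: wells of about 50 µL received 100 nL stock; 0% = vehicle wells and 100% = reference inhibitor wells; whole bacteria with a GFP reporter of the hypoxia response; strong numbers were not always called active; many hits fall short of the cut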
Sa ugtP lethal: compounds lethal to S. aureus RN4220 ugtP deletion mutant; OD600 growth, 16 h; some inactives read as strong as hits; growth inhibition, % (concentration not given with the values); 330,000 tested, 0.54% active;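 active means z-score under -3 and OD600 up to 0.15 on both plates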;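 further: plate controls were untreated wells for no effect and antibiotic for full effect; wells of about 80 µL received 100 nL stock; the first replicate is given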
RN4220 kill: kills Staphylococcus aureus RN4220. S. aureus RN4220 growth, OD600, 16 h. inhibition, % (no concentration beside the values). 330,000 tested, 0.33% active. AID 1259311;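 active means z-score of -3 or lower and OD600 up to 0.18 on both plates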;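 further: plate controls were untreated cells for no effect and reference antibiotic for full effect; stock transfer was 100 nL into about 80 µL; one replicate is shown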
BJeLR viability: BJeLR cell viability loss; BJeLR (HRASV12) viability, CellTiter-Glo ATP luminescence, 48 h; reference of the scale not given here; inhibition, % (concentration not given with the values); AID 1554; 300,000 tested, 0.17% active;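 active means replicate mean above 50%; inconclusive means above 50% but judged a plate artefact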;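 further: 50 nL library stock added to about 25 µL; numbers are from one replicate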
Bead autofluor: counter-screen for toxin protease inhibitors: compound fluorescence; compound autofluorescence counterscreen, microsphere flow cytometry; active compounds read high; fluorescence intensity (test concentration not listed); 360,000 tested, 3.1% active;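 active means at least 3 SD above the mean of all compounds, about 16000 in these data; inconclusive means too few beads counted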;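 further: 100 nL of 1 mM stock went into each well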
Mtb hypoxia inh growth: recorded beside Mtb hypoxia inh, whose call it bears; growth inhibition, %; measured here: M. tuberculosis growth (absorbance);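 0% = vehicle and 100% = reference antibiotic; read after six days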
* = called active by the depositor; ? = inconclusive; . = not tested or not shown.

SMILES	PrP 5UTR inh	Mtb hypoxia inh	Mtb hypoxia inh growth	Sa ugtP lethal	RN4220 kill	BJeLR viability	Bead autofluor
CCOC(=O)C1CCN(Cc2nc3ccc(Cl)cc3n2CCO)CC1	-19	4	8	-4	2.7	-24	3423
CC(=O)c1ccc(N(CC(=O)NC2CCS(=O)(=O)C2)S(=O)(=O)c2ccc(C)cc2)cc1 (configuration not stated)	-22	6	9	6	1.9	.	3538
O=C(c1ccc2c(c1)OCO2)C1CCCN(Cc2c(F)cccc2Cl)C1 (configuration not stated)	-23	3	5	15	-1.5	-6	5925
Cc1onc(-c2ccccc2Cl)c1C(=O)NC1CCS(=O)(=O)C1 (configuration not stated)	-7	.	.	4	0.8	-1	5003
O=C(Nc1nc2c(F)cc(F)cc2s1)c1ccco1	-32	4	1	11	-5.8	-3	4948
CN(C)C(=O)c1cn(N(C)c2ncc(C(F)(F)F)cc2Cl)c(=O)c2ccccc12	4	2	7	3	4.2	-3	3037
Cc1ccc(-n2c(SCC(=O)Nc3cccc(S(=O)(=O)NC4=NCCCCC4)c3)nc3ccccc3c2=O)cc1	2	6	0	-1	3.3	-15	2111
Cc1ccc(CN2CCNC(=O)C2CC(=O)N(C)C2CCCCC2)cc1 (configuration not stated)	-7	.	.	.	.	-15	6535
CCn1ccnc1CN1CCN(CC(C)C)C(CCO)C1 (configuration not stated)	-5	5	4	-1	6.6	11	4681
N#CC1=C(N)SC(N)=C(C#N)C1C1CC=CCC1 (configuration not stated)	-29	3	4	-5	5.4	7	6667
O=C(CSc1ccc2nnc(-c3ccncc3)n2n1)Nc1nccs1	-4	-7	-2	1	3.8	-4	2787
Clc1cccc(Cl)c1Cn1cnc(=NCc2ccco2)c2[nH]cnc21	-6	3	-1	-9	0.2	-4	9721
O=C1CC[C@H](OCc2ccccc2)CCN1[C@H](CSc1ccccc1)Cc1ccccc1	-14	.	.	.	.	-6	3734
CNC1(C(N)=O)CCNCC1	-9	.	.	.	.	2	3277
Cc1ccc(S(=O)(=O)NC(CC(C)C)C(=O)NCc2ccco2)cc1 (configuration not stated)	-18	1	4	0	1.7	4	10259
CN(C(=O)c1ccccc1-c1ncc[nH]1)C1CCCN(Cc2ccccc2F)C1 (configuration not stated)	-10	8	1	12	2.6	4	5563
O=c1cc(-c2ccsc2)oc2ccc(-c3ccc4cc[nH]c4c3)cc12	-40	4	2	18	9.4	.	2916
C=CCn1c(=O)c(C(=O)NCc2ccc3c(c2)OCO3)c(O)c2cc(OC)c(OC)cc21	-85	9	-3	4	8.4	-5	3609
C/C(=N\NC(=O)c1cc2c(s1)CCC(C)C2)c1cccnc1 (configuration not stated)	55*	.	.	.	.	-3	2468
COC(CNC(=O)c1ccc2nc(-c3ccccc3)c(-c3ccccc3)nc2c1)OC	-23	9	10	16	0.4	7	4232
Cc1cc(NC(=O)CCC(=O)N(Cc2ccco2)C(C(=O)NC2CCCC2)c2ccccc2)no1 (configuration not stated)	-12	2	1	13	3.6	6	3981
Cc1ccc(S(=O)(=O)c2c(N)n(/N=C/c3ccco3)c3nc4ccccc4nc23)cc1	5	.	.	.	.	9	20865*
COc1ccc(CCC(=O)OCC(=O)Nc2ccc(C)c(S(=O)(=O)N(C)C)c2)cc1	-16	-7	6	-1	-1.3	-5	2539
COc1ccccc1-n1nnnc1SCC(=O)Nc1cc(C)on1	-24	.	.	-1	-0.9	-15	5241
Cc1cc([N+](=O)[O-])ccc1NCc1ccccc1[N+](=O)[O-]	-13	5	8	-3	4.8	1	2075
CN(C(=O)COC(=O)CNC(=O)c1ccccc1F)C1CCCCC1	-12	-7	3	4	2.3	-6	4743
NC(=O)c1ccccc1OCC(=O)N1CCc2ccccc2C1	3	-4	4	7	-1.5	-1	3649
O=C(CC(c1ccccc1)c1ccccc1)NCC1CCCO1 (configuration not stated)	4	1	0	-6	-1.7	1	3331
COC(=O)c1cc2c(-c3ccccc3)c(C)c3ccccn3c-2c1C(=O)OC	-21	18	6	-39	-15	7	3197
Cn1cccc1Cc1nnc(SCC(=O)Nc2nc3ccccc3s2)n1CCc1ccccc1	-3	-4	8	-14	5.3	.	11147

Part of the list above, reformatted.
smiles | PrP 5UTR inh | Mtb hypoxia inh | Mtb hypoxia inh growth | Sa ugtP lethal | RN4220 kill | BJeLR viability | Bead autofluor
N#CC1=C(N)SC(N)=C(C#N)C1C1CC=CCC1 (configuration not stated) | -29 | 3 | 4 | -5 | 5.4 | 7 | 6667
O=C(CSc1ccc2nnc(-c3ccncc3)n2n1)Nc1nccs1 | -4 | -7 | -2 | 1 | 3.8 | -4 | 2787

Remaining list, next part:
SMILES	PrP 5UTR inh	Mtb hypoxia inh	Mtb hypoxia inh growth	Sa ugtP lethal	RN4220 kill	BJeLR viability	Bead autofluor
COCCCC1CCN(Cc2cn[nH]c2-c2cc(OC)c(OC)c(OC)c2)CC1	-22	-9	6	4	4.0	2	4261
COc1ccc(S(=O)(=O)N2CCOC2CNC(=O)C(=O)NCc2ccncc2)cc1OC (configuration not stated)	-9	-1	-5	-1	-0.9	-8	4589
CC(=O)c1cc2c(cc1NC(=O)c1ccco1)OCCO2	-10	2	-9	-9	-3.8	-3	2645
O=C(c1ccc2c(c1)OCO2)N1CCN(c2ccccc2)CC1	-13	.	.	8	1.9	-9	4708
CC(C)(C)c1csc(NN=Cc2ccc(O)cc2)n1	.	34*	59*	25	16	.	.
CC[C@]12c3[nH]c4ccccc4c3CCN1C(=O)C(CC(=O)NCC13CC4CC(CC(C4)C1)C3)C[C@@H]2C(=O)N1CCN(C(=O)c2ccco2)CC1 (some centres not stated)	6	6	7	-7	-11	.	4080
O=C(NCc1ccccc1F)c1ccc(S(=O)(=O)N2CCCCCC2)cc1	.	10	9	3	3.7	.	5575
Cc1nc(-c2ccc(S(=O)(=O)Nc3ccc(S(N)(=O)=O)cc3)cc2)co1	8	7	1	-8	0.8	-2	4291
COc1cccc(C=c2sc(=CC(=O)c3ccc(C)cc3)[nH]c2=O)c1OC	.	4	1	80	0.7	.	.
Cc1[nH]c2ccccc2c1SCc1nnc(SCc2ccccc2)n1C	-16	5	9	1	2.4	0	5720
CCN(CC)C(=O)C1CCCN(Cc2ccccc2)C1 (configuration not stated)	-13	13	8	1	4.6	-9	10313
CCCOc1ccc(N2C(=O)CC(N3CCN(c4ccccc4OC)CC3)C2=O)cc1 (configuration not stated)	-35	.	.	8	0.3	-2	5896
OCC(O)/C=N/Nc1nc(N2CCCCC2)nc(N2CCCCC2)n1 (configuration not stated)	-13	.	.	.	.	-5	2149
O=C(NCc1ccccc1Cl)C1CCN(S(=O)(=O)c2ccc(-n3cnnn3)cc2)CC1	-22	9	3	-1	1.9	-3	3870
COc1ccccc1N1C(=O)C2CCC(c3ccccc3)CC2C1=O (configuration not stated)	-8	13	7	12	3.9	-7	7452
O=c1c2sccc2n(Cc2cc(=O)n3ccccc3n2)c(=O)n1-c1ccccc1	-23	8	-6	5	3.4	7	2544
Cc1ccc(NC(=O)c2c(-c3c(F)cccc3Cl)noc2C)cc1F	-6	6	2	-9	6.0	-17	3288
Cc1ccc(SCC(=O)OC(C)C(=O)N2CCc3ccccc32)cc1 (configuration not stated)	20	-1	-1	8	4.8	-12	4977
CC(=O)Oc1ccc(N2C(=O)C3C4C=CC(CO)(O4)C3C2=O)cc1 (configuration not stated)	-12	.	.	-8	-0.5	-1	2541
COc1ccc(S(=O)(=O)N2CCN(C(=O)c3ccc(=O)[nH]n3)CC2)cc1OC	-4	3	0	4	4.5	.	7076
CCOC(=O)c1cc(NC(=O)CSCCO)ccc1Cl	-4	9	5	-4	7.0	-5	4537
COc1cccc(N=c2oc3ccc(OC)cc3cc2-c2nc3ccccc3[nH]2)c1	-105	4	-5	-23	-2.8	1	3835
CCOc1ccc(C(C)=O)cc1COC(=O)C(C)N=C1NS(=O)(=O)c2ccccc21 (configuration not stated)	9	8	4	-4	1.5	0	4260
CCCCN=C1CC(C)(C)CC(=O)/C1=C(/O)CCC	34	.	.	.	.	-16	6180
O=C(CCc1ccc(S(=O)(=O)N2CCOCC2)cc1)N1CCc2ccccc2C1	-34	-8	8	2	1.8	2	4607
CC(=O)Nc1ccc(S(=O)(=O)NCC2(N3CCOCC3)CCCCC2)cc1	-10	-4	-4	10	7.3	.	?
CC(=O)Nc1ccc(-c2nnc(SCC(=O)c3ccc4c(c3)Cc3ccccc3-4)n2C)cc1	-24	0	7	-14	10	-3	9297
CCNC(=O)NC(=O)COC(=O)CNC(=O)COc1ccccc1	-22	16	9	7	6.3	-3	3258
N=C1C(c2ccccc2)=C(O)CN1c1cccc(S(=O)(=O)NCc2ccco2)c1	-22	16	5	1	0.9	-21	3484
Cc1cccnc1NC(=O)CCCNC(=O)c1ccc(Cl)cc1	-22	5	5	4	1.3	4	?
O=C(CN1C(=O)C2CC=CCC2C1=O)Nc1nc(-c2ccc(F)cc2)cs1 (configuration not stated)	-38	20	14	8	-4.6	.	3524
CC(C)COc1ccc(C(=O)Nc2sc3c(c2C(=O)O)CC(C)(C)OC3)cc1	-25	8	0	10	18	-3	3945
O=C(C1CC1)N(CCN(C(=O)C1CC1)c1ccccc1)c1ccccc1	-5	5	2	8	1.3	-3	3156
COc1cccc(/C=N/Nc2cc(Cl)nc(C)n2)c1O	-34	.	.	.	.	14	3182
COCCCn1c(=N)c(C(=O)NC2CCCCC2)cc2c(=O)n3ccccc3nc21	-12	1	4	-9	-1.3	-3	3522
Cc1ccc(C)c(-n2c(C)cc(/C=N/NC(=O)c3c(C)nc4cc(C)ccn34)c2C)c1	-5	.	.	.	.	-3	11665
Cc1cccc(-c2nn(-c3ccccc3)cc2C(=O)N(C)CC(=O)Nc2ccc(N3CCOCC3)cc2)c1	-29	4	3	2	3.0	-10	?
CC1=CC(C)(C)N2C(=O)C(=O)c3cc(OC(=O)c4ccco4)cc1c32	-27	7	-10	-11	7.9	40	4609
COc1ccc(Cl)cc1NS(=O)(=O)c1ccc(S(=O)(=O)N2CCCC2)cc1	-2	-1	3	-9	19	-13	13064
COc1ccccc1NC(=O)c1cc(C(=O)O)ccc1C(=O)O	-1	9	12	-9	4.1	-6	8462
O=[N+]([O-])c1ccc(Cl)cc1CNc1ccc(F)c(F)c1	-4	11	-2	-10	0.3	4	2514
Cc1csc(SCC(=O)Nc2ncc(Cl)c(C)c2Cl)n1	-32	.	.	-5	1.4	12	5558
CCN(C(=O)COC(=O)c1cc(=O)[nH]c2ccccc12)C1CCS(=O)(=O)C1 (configuration not stated)	-24	0	-6	-4	3.3	-2	4231

Molecules listed so far containing fluorine:
SMILES	PrP 5UTR inh	Mtb hypoxia inh	Mtb hypoxia inh growth	Sa ugtP lethal	RN4220 kill	BJeLR viability	Bead autofluor
O=C(c1ccc2c(c1)OCO2)C1CCCN(Cc2c(F)cccc2Cl)C1 (configuration not stated)	-23	3	5	15	-1.5	-6	5925
O=C(Nc1nc2c(F)cc(F)cc2s1)c1ccco1	-32	4	1	11	-5.8	-3	4948
CN(C)C(=O)c1cn(N(C)c2ncc(C(F)(F)F)cc2Cl)c(=O)c2ccccc12	4	2	7	3	4.2	-3	3037
CN(C(=O)c1ccccc1-c1ncc[nH]1)C1CCCN(Cc2ccccc2F)C1 (configuration not stated)	-10	8	1	12	2.6	4	5563
CN(C(=O)COC(=O)CNC(=O)c1ccccc1F)C1CCCCC1	-12	-7	3	4	2.3	-6	4743
O=C(NCc1ccccc1F)c1ccc(S(=O)(=O)N2CCCCCC2)cc1	.	10	9	3	3.7	.	5575
Cc1ccc(NC(=O)c2c(-c3c(F)cccc3Cl)noc2C)cc1F	-6	6	2	-9	6.0	-17	3288
O=C(CN1C(=O)C2CC=CCC2C1=O)Nc1nc(-c2ccc(F)cc2)cs1 (configuration not stated)	-38	20	14	8	-4.6	.	3524
O=[N+]([O-])c1ccc(Cl)cc1CNc1ccc(F)c(F)c1	-4	11	-2	-10	0.3	4	2514
